Bioassay records as filed in PubChem BioAssay.
EPAC1 agonist = validation of human EPAC1 agonists; EPAC1 Rap1b BODIPY-GDP exchange, fluorescence; Potency, µM, for inactives: max response, positive = active, most hits filed as activators; 16,000 tested, 1% active; AID 1645883; active = well fitted activation curve with a large enough effect; inconclusive = small, poorly fitted or top-dose-only effect; inactive = no such curve, though single readings can be large or run the other way;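 note: nearly all actives have a fitted effect of over 70% in size; series mostly up to about 76 or 150 µM; scaled to a cAMP control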
Target sequence (O95398 whole entry, looked up): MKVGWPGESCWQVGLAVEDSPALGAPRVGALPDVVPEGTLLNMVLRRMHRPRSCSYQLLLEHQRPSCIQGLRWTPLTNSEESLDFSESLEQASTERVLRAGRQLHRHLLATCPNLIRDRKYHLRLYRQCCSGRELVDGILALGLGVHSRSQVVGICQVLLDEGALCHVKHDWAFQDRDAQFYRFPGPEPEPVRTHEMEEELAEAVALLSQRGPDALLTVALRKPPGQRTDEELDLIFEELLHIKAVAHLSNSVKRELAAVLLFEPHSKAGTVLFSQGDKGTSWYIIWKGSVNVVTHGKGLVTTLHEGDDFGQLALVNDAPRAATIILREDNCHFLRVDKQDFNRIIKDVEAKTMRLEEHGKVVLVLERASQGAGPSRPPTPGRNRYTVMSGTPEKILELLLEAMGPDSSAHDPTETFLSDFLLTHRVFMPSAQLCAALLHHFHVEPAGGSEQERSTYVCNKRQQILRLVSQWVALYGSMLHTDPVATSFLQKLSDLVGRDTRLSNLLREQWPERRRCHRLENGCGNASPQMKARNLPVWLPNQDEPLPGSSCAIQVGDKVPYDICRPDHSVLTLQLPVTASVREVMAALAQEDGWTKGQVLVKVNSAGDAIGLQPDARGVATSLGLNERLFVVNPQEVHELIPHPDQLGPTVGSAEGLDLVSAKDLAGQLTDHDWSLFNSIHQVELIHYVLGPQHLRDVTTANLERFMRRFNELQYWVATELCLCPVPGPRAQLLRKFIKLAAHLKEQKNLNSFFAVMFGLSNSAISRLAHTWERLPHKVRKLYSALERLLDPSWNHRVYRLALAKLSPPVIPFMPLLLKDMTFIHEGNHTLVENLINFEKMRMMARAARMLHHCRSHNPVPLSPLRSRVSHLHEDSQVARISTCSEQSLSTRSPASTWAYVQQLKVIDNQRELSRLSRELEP
Starred values were filed as active, the others as inactive; & = joins results of further samples; [ ] = remark or other dose. % is set by controls: 0 for no effect and ±100 for the full control effect; potency is the fitted concentration of half-maximal effect.

Sample of the layout, two compounds:
Cn1c(=O)c(-c2ccc(Cl)cc2)nc2cnc(Oc3cccc(Cl)c3)nc21 was read as EPAC1 agonist -8.2%.
`COc1cc(-c2c(-c3ccc4c(c3)OCO4)noc2-c2ccsc2)cc(OC)c1OC` gave EPAC1 agonist 6.0%.

Results, previewed entries included:
Cn1c(=O)c(-c2ccc(Cl)cc2)nc2cnc(Oc3cccc(Cl)c3)nc21 was read as EPAC1 agonist -8.2%.
`COc1cc(-c2c(-c3ccc4c(c3)OCO4)noc2-c2ccsc2)cc(OC)c1OC` gave EPAC1 agonist 6.0%.
O=C(O)c1cc([N+](=O)[O-])ccc1NCCCc1ccccc1 was read as EPAC1 agonist -8.1%&-18.4%&-18.8%.
Screening COC(=O)C1CCN(Cc2ccc3c(c2)CN(C(=O)c2cc(C)on2)CCO3)CC1 returned EPAC1 agonist -1.0%.
`O=C(Nc1cc(C(=O)N2CCN(CCO)CC2)c2c(c1)ncn2C1CCCC1)c1ccccc1` gave EPAC1 agonist -6.8%.
`CCCCC(=O)NCCc1c(Cc2ccccc2)[nH]c2ccccc12` gave EPAC1 agonist 16.2%&19.7%.
`COc1cc([C@@H]2c3cc4c(cc3[C@H](O)C3COC(=O)[C@@H]32)OCO4)cc(OC)c1OC` (stereo partly specified) gave EPAC1 agonist -0.7%.
`COC(=O)CC1C(C)(C)C(O)C2CC3=C4C=C(OC)OC(c5ccoc5)[C@]4(C)CCC3[C@@]1(C)C2=O` (stereo partly specified) gave EPAC1 agonist inconclusive.
`O=C(Nc1ccc2c(c1)OCO2)O[C@@H]1C[C@H]2CCC(=O)N3CC[C@@H](C1)[C@@H]23` gave EPAC1 agonist 1.3%.
CO[C@H]1C[C@@H]2CC[C@@H](C)[C@@](O)(O2)C(=O)C(=O)N2CCCC[C@H]2C(=O)OC([C@H](C)C[C@@H]2CC[C@@H](O)[C@H](OC)C2)CC(=O)[C@H](C)/C=C(\C)[C@@H](O)[C@@H](OC)C(=O)[C@H](C)C[C@H](C)/C=C/C=C/C=C/1C (stereo partly specified) was read as EPAC1 agonist -20.2%.
For O=C(C[C@H]1C(=O)N(c2ccccc2)C[C@@H]1Cc1ccccc1)Nc1ccccc1 the results were EPAC1 agonist inconclusive.
`COc1ccc(CN2CCOc3ccc(C(O)c4cccnc4)cc3C2)c(OC)c1OC` (stereo unspecified) gave EPAC1 agonist 7.3%.
Screening COc1ccc(CNc2ncncc2-c2cccnc2)c(OC)c1 returned EPAC1 agonist 7.9%.
`CNc1ccnc(-c2ccccc2C(F)(F)F)n1` gave EPAC1 agonist -8.7%.
`C=C(C)[C@H]1CC=C(C)C(=O)C1` gave EPAC1 agonist 1.3%.

Pulled by structure from the list above:
`O=C(Nc1cc(C(=O)N2CCN(CCO)CC2)c2c(c1)ncn2C1CCCC1)c1ccccc1` gave EPAC1 agonist -6.8%.
`COC(=O)CC1C(C)(C)C(O)C2CC3=C4C=C(OC)OC(c5ccoc5)[C@]4(C)CCC3[C@@]1(C)C2=O` (stereo partly specified) gave EPAC1 agonist inconclusive.
Screening COc1ccc(CNc2ncncc2-c2cccnc2)c(OC)c1 returned EPAC1 agonist 7.9%.
O=C(O)c1cc([N+](=O)[O-])ccc1NCCCc1ccccc1 was read as EPAC1 agonist -8.1%&-18.4%&-18.8%.
`CNc1ccnc(-c2ccccc2C(F)(F)F)n1` gave EPAC1 agonist -8.7%.
`COc1cc([C@@H]2c3cc4c(cc3[C@H](O)C3COC(=O)[C@@H]32)OCO4)cc(OC)c1OC` (stereo partly specified) gave EPAC1 agonist -0.7%.
`C=C(C)[C@H]1CC=C(C)C(=O)C1` gave EPAC1 agonist 1.3%.

(cont.)
Screening O=C(NC[C@H]1CCCCN1)c1cc(OCC(F)(F)F)ccc1OCC(F)(F)F returned EPAC1 agonist 0.3%.
`C[C@@H]1C[C@H]2[C@@H]3CCC4=CC(=O)C=C[C@]4(C)[C@@]3(F)[C@@H](O)C[C@]2(C)[C@@]1(O)C(=O)CO` gave EPAC1 agonist -9.4%.
For CCOC(=O)/C=C/c1ccccc1S(=O)(=O)NC(C)(C)C the results were EPAC1 agonist -31.9%[inhibitor].
For CC(O)(COc1ccccc1)c1ccc2c(c1)CN(C/C=C/c1ccco1)CCO2 (stereo unspecified) the results were EPAC1 agonist 5.7%.
COc1ccc(-c2nc3cnc(N4CCN(C)CC4)nc3n(CCC#N)c2=O)cc1 was read as EPAC1 agonist 14.7%.
`Cc1cnc(SCc2ccccn2)nc1C1CCCN(C(=O)c2ccc3[nH]c(C)c(C)c3c2)C1` (stereo unspecified) gave EPAC1 agonist -2.9%.
Screening C[C@@H](C1=C(CCN(C)C)Cc2ccccc21)c1ccccn1 returned EPAC1 agonist 14.9%.
Screening Cc1noc(C)c1C(=O)N1CCC2(CCCN(C(=O)Nc3cccc(C#N)c3)C2)CC1 returned EPAC1 agonist -12.1%.
Screening CCn1nc(C)c(CN2CCC3(CCC(CNC(=O)c4ccccc4)O3)CC2)c1C (stereo unspecified) returned EPAC1 agonist -8.9%.
For O=C(c1ccncc1)N1CCC2(CCC(CNC(=O)C3(N4CCOCC4)CCCCC3)O2)CC1 (stereo unspecified) the results were EPAC1 agonist -0.3%.
Screening C=N[C@@H](C(=O)N[C@@H]1C(=O)N2[C@@H]1SC(C)(C)[C@@H]2C(=O)O)c1ccccc1 returned EPAC1 agonist 14.5%.
Screening Cc1cc2nc(N3CCCN(Cc4cccn4-c4ncccn4)CC3)nc(C)c2cc1C returned EPAC1 agonist 7.1%.
`CNC(=O)[C@@H]1C[C@H](NC2CCCCCCC2)CN1Cc1cccc(OC)c1OC` gave EPAC1 agonist -6.3%.
Screening Cc1cccc(-c2cccc(C(=O)N3CCc4c(cnc(C)c4CNC(=O)c4cncs4)C3)c2)c1 returned EPAC1 agonist -10.8%.
For O=C(O)[C@@H]1C[C@H](C(=O)O)N1 the results were EPAC1 agonist 4.2%.
COc1cc2c(c(OC)c1OC)-c1ccc(OC)c(=O)cc1[C@@H](NC(C)=O)CC2 was read as EPAC1 agonist -1.6%&-49.0%&0.7%.
`Cc1ccccc1-c1ccc2ncnc(NCCN3CCOCC3)c2c1` gave EPAC1 agonist -24.1%.
O=c1cc(-c2cc(O)c(O)c(O)c2)oc2cc(O)cc(O)c12 was read as EPAC1 agonist -39.9%.
For CCCS(=O)(=O)NCc1c(C)ncc2c1CCN(C(=O)c1ccc(F)c(F)c1)C2 the results were EPAC1 agonist -15.2%.
Screening CC1(C)SC2C(NC(=O)Cc3ccccc3)C(=O)N2C1C(=O)O (stereo unspecified) returned EPAC1 agonist 11.3%.
Screening CCNc1ncc2nc(-c3ccc(F)cc3)c(=O)n(-c3ccc(OC)cc3)c2n1 returned EPAC1 agonist -2.9%.
For Cc1oc(-c2cccc(NC(=O)C3CCCN(C)C3)c2)nc1CNC(=O)c1coc2c1C(=O)CCC2 (stereo unspecified) the results were EPAC1 agonist 0.9%.
COc1ccccc1/C=C\C(=O)OC[C@@H]1CCCN2CCCC[C@H]12 was read as EPAC1 agonist -10.6%.
`COc1cc2c(cc1OC)C(/C=C/c1ccc(OC)c(OC)c1OC)=NCC2` gave EPAC1 agonist -29.0%.
For CC(C)C[C@@H](CC#N)N1CCN(CCc2ccccc2)CCC1=O the results were EPAC1 agonist -0.7%.
`COC(=O)N1CCC2(CC1)CN(c1cccc(-c3ccccc3)c1)C2` gave EPAC1 agonist inconclusive.
C[C@@H]1OC(OC2C(OC3CC[C@@]4(C)C5CC=C6C7CC(C)(C)CC[C@@]7(C(=O)O)CCC6(C)C5(C)CCC4[C@]3(C)CO)OCC(O)C2O)C(O)C(O)C1O (stereo partly specified) was read as EPAC1 agonist -4.9%.
OCCc1ccccc1 was read as EPAC1 agonist inconclusive.
`C=C[C@]1(C)C[C@@H](OC(=O)CSCCN(CC)CC)[C@]2(C)[C@H](C)CC[C@]3(CCC(=O)[C@H]32)[C@@H](C)[C@@H]1O` gave EPAC1 agonist -26.3%.
O=S1(=O)[C@H]2C[C@@H]3C=C[C@@]2(CN1Cc1cccc(Cl)c1)O3 was read as EPAC1 agonist -6.4%.
For O=C1CCC[C@@H]2C[C@@]3(C[C@@H]4CCN1[C@H]24)Nc1ccccc1NC3=NCc1ccccc1 the results were EPAC1 agonist inconclusive.
For CS(=O)(=O)CCNCc1ccc(-c2ccc3ncnc(Nc4ccc(OCc5cccc(F)c5)c(Cl)c4)c3c2)o1 the results were EPAC1 agonist 23.4%.
`COc1cc2c(cc1OC)CN(C(=O)[C@@H]1C[C@H](NCc3cn(C)c4ccccc34)CN1C1Cc3ccccc3C1)CC2` gave EPAC1 agonist -0.6%.
`CC(C)C[C@@H](CO)N1CCN(Cc2ccc(O)cc2)CCC1=O` gave EPAC1 agonist inconclusive.
Screening OCc1ccccc1O[C@H]1OC(CO)C(O)C(O)C1O (stereo partly specified) returned EPAC1 agonist 0.7%.
For Cc1ccccc1-c1nc(N2CCOCC2)c2ccccc2n1 the results were EPAC1 agonist -35.1%[inhibitor].
O=C(Nc1ccccc1)N1CCCC2(CCN(C(=O)c3cc(C(F)(F)F)cc(C(F)(F)F)c3)CC2)C1 was read as EPAC1 agonist -81.8%[inhibitor].
For CN(C)C(=O)c1ccc(-c2cncnc2NCc2ccccc2)cc1 the results were EPAC1 agonist -9.2%.
`COC(=O)N1CCC2(CCN(Cc3ccccc3)CC2)CC1` gave EPAC1 agonist -81.0%[inhibitor].
Screening COC(=O)c1c(OCCN2CCCCC2)cc(=O)n2c1CCN(Cc1cccc3nccnc13)CC2 returned EPAC1 agonist 16.4%.
CC(C)=CCC1=C(O)[C@](O)(CC=C(C)C)C(=O)C(C(=O)CC(C)C)=C1O was read as EPAC1 agonist -14.6%.
Screening c1cncc(-c2nc(NCc3cccs3)c3ccccc3n2)c1 returned EPAC1 agonist -11.3%.
O=C(C[N+]1(CC(O)c2ccccc2)CCCCC1)c1ccccc1 (stereo unspecified) was read as EPAC1 agonist -6.7%.
COCC(=O)N1CCC2(CCCN(Cc3ccc(C#N)cc3)C2)CC1 was read as EPAC1 agonist -48.5%[inhibitor].
Screening Cc1ncc(CSSCc2cnc(C)c(O)c2CO)c(CO)c1O returned EPAC1 agonist 9.8%.
For O=c1c(-c2ccccc2)nc2cnc(N3CCOCC3)nc2n1Cc1cccs1 the results were EPAC1 agonist 9.6%.
Screening Cc1ccccc1C(=O)NC(C)c1nnc2n1CCN(Cc1ccnc3ccccc13)CC2 (stereo unspecified) returned EPAC1 agonist -18.4%.
`COC(=O)N1CCC2(CCCN(C(c3ccccc3)c3ccccc3)C2)CC1` gave EPAC1 agonist -0.9%.
For COC(=O)c1ccccc1-c1cc(C)cc2c1OC(CNC(=O)c1cc(C)n(C)n1)C2 (stereo unspecified) the results were EPAC1 agonist 0.6%.
For CN(C)c1ncc2ncc(=O)n(C[C@H]3CCCO3)c2n1 the results were EPAC1 agonist 8.3%.
For COc1cc2c(cc1OC)-c1cc3nc4ccccc4nc3n1C(C)(C)C2 the results were EPAC1 agonist 1.5%.
Screening CN1CCN(c2cc(-c3ccccc3Cl)ncn2)CC1 returned EPAC1 agonist -25.9%.
`COc1ccc(CNc2ccnc(-c3ccc(N(C)C)cc3)n2)c(OC)c1` gave EPAC1 agonist inconclusive.
`FC(F)(F)c1ccccc1-c1cncnc1NCCN1CCOCC1` gave EPAC1 agonist -27.5%.
For CN(Cc1ccccc1)c1ccc(C=O)cc1 the results were EPAC1 agonist 7.2%.
COCCn1c(=O)c(-c2cccs2)nc2cncnc21 was read as EPAC1 agonist 4.2%.
`O=C(O)c1c2ccccc2cc2ccccc12` gave EPAC1 agonist 27.7%&-23.1%.
Screening O=C(c1cccc(F)c1)N1CCC2(CCCN(Cc3cc(C(F)(F)F)cc(C(F)(F)F)c3)C2)CC1 returned EPAC1 agonist -34.6%[inhibitor].
CC(C)OC(=O)c1cc2c(OCC(O)CNC(C)(C)C)cccc2[nH]1 (stereo unspecified) was read as EPAC1 agonist 14.0%.
`Cc1cn(C2CCC(CO)O2)c(=O)[nH]c1=O` (stereo unspecified) gave EPAC1 agonist inconclusive.
For Cc1ccc(C(C)C)c(O)c1 the results were EPAC1 agonist -8.5%.
Screening COc1ccc(O)cc1 returned EPAC1 agonist -10.9%.
NC(=O)C(c1ccccc1)(c1ccccc1)[C@@H]1CCN(CCc2ccc3c(c2)CCO3)C1 was read as EPAC1 agonist -11.7%.
CC12CCCC(O)(C1)C1CC(C)(C)C1CC2 (stereo unspecified) was read as EPAC1 agonist -148.9%[inhibitor].
O=C(CCBr)N1CCN(C(=O)CCBr)CC1 was read as EPAC1 agonist -20.3%.
For c1ccc(-c2cccc(N3CCC4(CCNCC4)CC3)c2)cc1 the results were EPAC1 agonist -28.2%.
N#Cc1ccccc1-c1cncnc1NCc1cccnc1 was read as EPAC1 agonist -9.5%.
Screening Cc1cccc(CNC(=O)c2cnn(-c3nccc(-c4ccccc4F)n3)c2C)n1 returned EPAC1 agonist 0.1%.
O=c1[nH]cnc2n[nH]nc12 was read as EPAC1 agonist inconclusive.
CCOC(=O)/C=C/c1ccc2c(c1)S(=O)(=O)N(c1cccc(OC)c1)[C@H]2CC(=O)OCC was read as EPAC1 agonist 3.1%.
CCCCCN=C(N)N/N=C/c1c[nH]c2ccc(OC)cc12 was read as EPAC1 agonist -22.1%&-25.4%.
Cc1cccc(C(=O)O)c1O was read as EPAC1 agonist -6.9%.
`C[N+](C)(C)CCCCCCCCCC[N+](C)(C)C` gave EPAC1 agonist 3.8%&14.3%.
CCC(=O)NC1CCc2cccc(OC)c2C1 (stereo unspecified) was read as EPAC1 agonist -4.6%.
For Cc1c(C)c2c(c(C)c1OC(=O)CCC(=O)O)CC[C@@](C)(CCC[C@H](C)CCC[C@H](C)CCCC(C)C)O2 the results were EPAC1 agonist -116.4%[inhibitor].
COc1cccc(N2[C@@H](CC(C)=O)c3cc(C(F)(F)F)ccc3S2(=O)=O)c1 was read as EPAC1 agonist -1.9%.
For COc1ccc(-c2cn(Cc3cccc(OC)c3)nn2)cc1 the results were EPAC1 agonist 5.9%.
`CCOC(=O)O[C@]1(C(=O)COC(=O)CC)CC[C@H]2[C@@H]3CCC4=CC(=O)C=C[C@]4(C)[C@H]3[C@@H](O)C[C@@]21C` gave EPAC1 agonist -1.9%.
`Cc1ncc2c(c1CNC(=O)c1ccc3c(c1)OCO3)CCN(C(=O)c1coc3c1C(=O)CCC3)C2` gave EPAC1 agonist 3.0%.

The list is partial; the hit share may differ from the screen's.
